miR-21 FLuc: miR-21 reporter, rising signal | AID 2288 | 340,000 tested, under 10 active | HeLa miR-21 FLuc reporter, luciferase, 48 h | Potency, µM (top dose mostly 38.3 µM), for the others: top-dose reporter change, positive = more light; active = well fitted rising curve with a large enough effect; inconclusive = small, poorly fitted or top-dose-only effect; inactive = no such curve, though single readings can be large or run the other way;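 further: % of control where 0% means no effect; miR-21 action dims this reporter so a rising signal means less miR-21 action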
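Luminescence from a firefly luciferase reporter carrying a miR-21 binding site downstream, stably expressed under a CMV promoter in HeLa cells that make miR-21 endogenously, reports miRNA modulation after 48 h compound exposure up to approximately 40uM final.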
Active calls of the source: *; ? = inconclusive. Some of the compounds tested. The share of hits here may be higher or lower than overall.

SMILES	miR-21 FLuc
Cc1ccc(CNC(=O)CCS(=O)(=O)c2cc(Br)cc3c2N(C(=O)C2CC2)CC3)cc1	0.8%
Cc1ccc(CCNC(=O)c2c[nH]c3ccc(S(=O)(=O)Nc4ccc(C)cc4C)cc3c2=O)cc1	16.9%
Cc1ccc(CNC(=O)CSc2nnc(C)c3c(C)n(-c4ccccc4)nc23)cc1	5.6%
O=c1[nH]c(=O)n(Cc2ccc(Oc3ccccc3)cc2)cc1Br	-0.2%
Cc1ccc(OCCn2cc(C(=O)c3cccs3)c3ccccc32)cc1	-7.2%
Cc1nc(-c2ccccc2)sc1-c1ccc(SCC(=O)Nc2cccc(C(F)(F)F)c2)nn1	-16.3%
CCCCC(CC)CNC(=O)CCCn1c(=O)[nH]c2ccsc2c1=O (stereo not drawn)	9.8%
O=c1oc2ccccc2cc1-c1cn2cc(Cc3ccc(F)cc3)sc2n1	-4.6%
CS(=O)(=O)Nc1ccc(-c2nc3ccccc3s2)cc1	0.6%
Cc1ccc(Cl)cc1NC(=O)C(NS(=O)(=O)c1cccc2nsnc12)c1ccccc1 (stereo not drawn)	3.3%
Cc1ccc(-c2cc3ncc4c(n3n2)-c2cc(Cl)ccc2OC4)cc1	-10.8%
CC1(C)CC(=O)c2cc(C(=O)Nc3ccc(Br)cc3)c(=O)n(-c3ccc(Cl)cc3)c2C1	-3.7%
O=c1c2sc3ccccc3c2n(Cc2cccc(Cl)c2)c(=O)n1Cc1ccccc1	-1.5%
CCc1c(C)nc(SCc2nc(-c3ccccc3C)no2)[nH]c1=O	-6.0%
COc1cccc(-c2nc(CS(=O)(=O)CC(=O)N3CCN(c4ccccc4)CC3)c(C)o2)c1	?
Cc1ccc(-n2c(=O)c3c4c(sc3n(CC(=O)C(C)(C)C)c2=O)CCCCC4)cc1C	-4.9%
Cc1ccc(-n2cnc3cc(C(=O)NCCC4=CCCCC4)ccc32)cc1Cl	-8.2%
CCCCc1nn2c(=O)cc(COC(=O)c3ccc4c(c3)OCO4)nc2s1	0.1%
CC(=O)c1ccc(NC(=O)CN2C(=O)CCc3cc(S(=O)(=O)N4CCC(C)CC4)ccc32)cc1	-6.3%
COc1ccc(CNc2ccc3cc(S(=O)(=O)N4CCCCC4)ccc3n2)cc1	25.0%
CCc1ccc(NC(=O)Cn2c(=O)n(CCCCC(=O)NCCc3ccc(Cl)cc3)c(=O)c3ccccc32)cc1	-1.8%
COc1ccccc1NC(=O)C(=O)NCC(c1ccc2c(c1)OCO2)N1CCN(C)CC1 (stereo not drawn)	-11.3%
COc1cc(Cl)ccc1Nc1ncc(C(=O)N2CCN(c3ccccc3OC)CC2)c2ccccc12	19.9%
CCCS(=O)(=O)c1c(S(=O)(=O)CCC)c2cc(CC)ccn2c1C(=O)c1ccc(OC)cc1	11.1%
Cc1c(C(=O)N2CCC(C)CC2)c(S(=O)(=O)NCc2ccc(Br)cc2)c(C)n1C	4.5%
Continued:
SMILES	miR-21 FLuc
CCOc1ccccc1NS(=O)(=O)c1ccc2oc(=O)c3ncn(C)c3c2c1	6.7%
Cc1ccc(-c2nnc(Nc3ccc(F)cc3)c3ccccc23)cc1S(=O)(=O)NC(C)C	-3.5%
COc1ccc(C(=O)COC(=O)CCCC(=O)Nc2ccc(C(C)=O)cc2)cc1	-49.6%
O=C(CN1C=NS(=O)(=O)c2ccc(C(F)(F)F)cc21)Nc1cccc(C(F)(F)F)c1	3.7%
CCC(=O)N1CCCc2cc(S(=O)(=O)N3CCC(C(=O)Nc4cccc(Cl)c4)CC3)ccc21	6.5%
Cc1nncn1-c1ccc(C(=O)Nc2cc(F)ccc2F)cc1	0.7%
O=C(NCc1ccc(Cl)cc1)C1=Cc2cc(Br)ccc2OC1	-1.0%
CC(=O)N1CCc2cc(S(=O)(=O)NC(CC(C)C)C(=O)Nc3cc(C)cc(C)c3)ccc21 (stereo not drawn)	-10.4%
COc1ccc(N2CCN(Cc3nc4c(c(=O)[nH]c(=O)n4C)n3Cc3ccccc3F)CC2)cc1	-6.0%
Cc1noc(Cn2c(=O)c3ccccc3n(CC(=O)Nc3ccc(F)cc3F)c2=O)n1	-1.1%
Cc1ccc(-n2ncc3c(NCCc4ccccc4)ncnc32)cc1C	9.9%
O=C(CSc1nnc(-c2ccccc2)c(-c2ccccc2)n1)NC1CCCC1	7.4%
CCOc1ccc(NC(=O)c2c(NC(=O)CN3CCN(C)CC3)sc3c2CCC3)cc1	-4.0%
O=C(CSc1nc(-c2cccs2)nc2cc(=O)[nH]n12)Nc1ccc(F)cc1	-1.2%
CSc1nn(Cc2cccc(Cl)c2)c(N(C(C)=O)C(C)=O)c1S(=O)(=O)c1ccccc1	28.8%
Cc1nc(-c2cccc(F)c2)sc1CCNC(=O)c1c(F)cccc1Cl	-18.0%
CCCN1Cc2cccc(C(=O)Nc3cc(Cl)ccc3C)c2C1=O	4.8%
CC(=O)c1ccc(NC(=O)Cn2c(=O)c3cccn3c3ccccc32)cc1	2.3%
Cc1ccccc1NC(=O)Cn1c(=O)n(Cc2ccc3c(c2)OCO3)c(=O)c2oc3ccccc3c21	0.4%
CCOC(=O)CSc1nc2sc3c(c2c(=O)n1-c1ccccc1)CC(C(C)C)OC3 (stereo not drawn)	-4.9%
CCN(CC)C(=O)Cn1c(SCCOc2ccc(Cl)cc2)nc2ccccc21	1.2%
Cc1ccc(C)c(N2CCN(C(=O)c3cc(S(=O)(=O)N4CCCCCC4)cn3C)CC2)c1	7.0%
Cc1ccccc1C(=O)Nc1ccc(S(=O)(=O)N2CCC(c3nc4ccccc4s3)CC2)cc1	-0.3%
O=C(CCn1c(=O)c2cccn2c2cccnc21)Nc1ccccc1C(F)(F)F	-1.0%
CC(=O)Nc1ccc2nc(SCCOc3cc(C)cc(C)c3)sc2c1	9.0%
Later entries
SMILES	miR-21 FLuc
COc1ccc(Cl)cc1NC(=O)Cc1coc2c(C)c(C)ccc12	-6.3%
O=C(NCc1cccs1)c1nn(-c2ccccc2)nc1CO	?
Cc1cccc(CS(=O)(=O)CC2Nc3ccc(C(=O)NCc4ccccc4Cl)cc3NC2=O)c1 (stereo not drawn)	-1.7%
O=C(NCc1ccccc1F)C1CCN(Cc2cc3ccccc3n2Cc2cccc(Cl)c2)CC1	15.7%
CCOC(=O)c1c(C)[nH]c(C)c1S(=O)(=O)NCC(=O)Nc1cc(Cl)ccc1OC	-3.4%
COc1ccc(-c2noc(N3CCN(c4ccc(Cl)cc4)CC3)n2)cc1OC	-1.8%
COc1cc2[nH]c(=O)n(CCC(=O)N3CCN(c4ccc(Cl)cc4)CC3)c(=O)c2cc1OC	0.3%
Cc1ccc2nc(COc3cccc(NC(=O)Nc4ccc(C)c(Cl)c4)c3)cc(=O)n2c1	-31.6%
Cc1ccc2nc(-c3cc(NC(=O)/C=C/c4ccccc4)ccc3Cl)oc2c1	-20.4%
O=C(O)c1c(-c2ccccc2)oc2ccc(OCc3c(F)cccc3Cl)cc12	12.6%
COc1ccccc1C1=Nn2c(nc3sc(C(=O)Nc4ccccc4Cl)c(C)c3c2=O)SC1	22.2%
O=C(CCS(=O)(=O)c1cc2c3c(c1)CCN3C(=O)CC2)NCc1ccc(Cl)cc1	2.5%
COc1ccc(-c2nc3cc(C)ccn3c2NC(=O)c2ccc(F)cc2)cc1	-42.7%
CC1(C(=O)Nc2cccc(Br)c2)Cc2ccccc2C(=O)O1 (stereo not drawn)	1.1%
COc1ccc(CNC(=O)c2nc(SCc3ccccc3F)ncc2Cl)cc1	?
COc1cc(NC(=O)c2cc3cc4ccc(OC)c(Cl)c4nc3s2)cc(OC)c1	-2.8%
Cc1cc(NC(=O)CCc2nc3cccnc3n2-c2ccccc2)ccc1Br	12.6%
Cc1oc(-c2ccc(Cl)cc2)nc1CS(=O)CC(=O)NCc1ccc(Cl)cc1 (stereo not drawn)	4.9%
CC(=O)Nc1ccc(NC(=O)c2cc3c(=O)n(Cc4cccnc4)ccc3nc2C)cc1	-5.4%
CCC(=O)N1c2ccccc2CC1C(=O)NCCc1ccc(C)cc1 (stereo not drawn)	-0.5%
N#C/C(=C\c1ccccc1)c1nc(-c2cc3c(ccc4ccccc43)oc2=O)cs1	-23.4%
CCOc1ccc2oc(=O)cc(CN3CCN(C(=O)c4ccc(Cl)cc4)CC3)c2c1	10.2%
COc1ccc(CCNC(=O)c2ccc(Cn3c(=O)c4ccccc4n(Cc4cccc(Cl)c4)c3=O)cc2)cc1OC	10.0%
Cc1c(C(=O)N2CCC(C)CC2)c(S(=O)(=O)Nc2cccc(C#N)c2)c(C)n1C	-2.6%
COc1cccc(CNC(=O)N2CCC(CN3CCC(C)CC3)CC2)c1	-6.4%
Going on with the list:
SMILES	miR-21 FLuc
CN(C)c1ccc(CNC(=O)C2CCN(Cc3cc4ccccc4n3Cc3ccccc3)CC2)cc1	?
CCc1ccccc1NC(=O)C1CCC(CNS(=O)(=O)c2ccc3c(c2)CC(C)N3C(C)=O)CC1 (stereo not drawn)	-5.8%
N#Cc1c[nH]n2c(NC3CCCCC3)c(-c3ccc(F)cc3)nc12	-10.9%
COc1cc(Nc2nc3c(S(=O)(=O)c4cccc(Cl)c4)nnn3c3ccsc23)cc(OC)c1	-7.6%
CN1c2ccccc2-c2nc(SCC(=O)Nc3ccccc3C(F)(F)F)ncc2S1(=O)=O	4.2%
CN(C)c1ccc(NC(=O)CCSc2nc(-c3ccco3)cc(C(F)(F)F)n2)cc1	-29.7%
Oc1ccccc1-c1nc(/C=C/c2ccc(F)cc2)no1	-58.3%
CCc1ccccc1Nc1ncnc2c1nc1n2CCCC1	-14.8%
COc1ccc(-c2nnc(SCC(=O)Nc3ccc(C(C)=O)cc3)nc2-c2ccc(OC)cc2)cc1	-49.2%
O=C(CS(=O)(=O)c1ccc(Cl)cc1)Nc1nc2ccc(Br)cc2s1	-1.8%
O=C(CCn1c(=O)c2ccccc2n(Cc2ccc(Cl)cc2)c1=O)NCc1ccc2c(c1)OCO2	-0.3%
O=C(Cn1c(=O)n(Cc2nc(-c3ccccc3)no2)c(=O)c2cc3c(cc21)OCO3)Nc1ccc(Cl)cc1	20.1%
CCC(C)NC(=O)Cn1c(=O)n(-c2ccc(OC)c(OC)c2)c(=O)c2ccccc21 (stereo not drawn)	-4.0%
COc1ccc(C(=O)Nc2ccccc2C(=O)OCc2cc(=O)n3c4c(sc3n2)CCCC4)cc1	0.9%
Cc1ccc(C(=O)O)cc1NC1(c2ccccc2)C(=O)c2ccccc2C1=O	-1.3%
CCN(CC)S(=O)(=O)c1ccc(NC(=O)c2cc3ccc4cccnc4c3[nH]2)cc1	-4.3%
Cc1ccc(-c2ccc(=O)n(CC(=O)Nc3ccc(C(C)C)cc3)n2)cc1	0.0%
CCCCC(CC)CNC(=O)C1CCN(S(=O)(=O)c2cccc3nsnc23)CC1 (stereo not drawn)	2.0%
Cc1cccc(C2N3CC4(C(C)C)CN2CC(C(C)C)(C3)C4=O)c1 (stereo not drawn)	4.3%
Cc1noc(-c2ccc(N3CCC(C)CC3)c([N+](=O)[O-])c2)n1	-40.2%
CCCC(=O)Nc1nnc2n1CCS2	-2.3%
Cc1cc(C)c(NC(=O)c2c(C)nn(-c3ccc(F)cc3)c2-n2cccc2)c(C)c1	14.4%
CCCOc1ccc(C(=O)Nc2ccc(NC(=O)c3ccccc3)c(Br)c2)cc1	-13.4%
COc1ccccc1CNc1ccc(-c2nc(-c3cccnc3)no2)cc1[N+](=O)[O-]	-2.8%
COc1ccc2c(c1)c1c(c(=O)n(CCc3ccccc3)c(=O)n1Cc1cccc(Cl)c1)n2C	2.3%

7 entries out of the list above, ordered by the number in miR-21 FLuc, descending.
SMILES	miR-21 FLuc
O=C(Cn1c(=O)n(Cc2nc(-c3ccccc3)no2)c(=O)c2cc3c(cc21)OCO3)Nc1ccc(Cl)cc1	20.1%
Cc1cc(C)c(NC(=O)c2c(C)nn(-c3ccc(F)cc3)c2-n2cccc2)c(C)c1	14.4%
CCCCC(CC)CNC(=O)C1CCN(S(=O)(=O)c2cccc3nsnc23)CC1 (stereo not drawn)	2.0%
COc1ccccc1CNc1ccc(-c2nc(-c3cccnc3)no2)cc1[N+](=O)[O-]	-2.8%
CCC(C)NC(=O)Cn1c(=O)n(-c2ccc(OC)c(OC)c2)c(=O)c2ccccc21 (stereo not drawn)	-4.0%
CCc1ccccc1NC(=O)C1CCC(CNS(=O)(=O)c2ccc3c(c2)CC(C)N3C(C)=O)CC1 (stereo not drawn)	-5.8%
N#Cc1c[nH]n2c(NC3CCCCC3)c(-c3ccc(F)cc3)nc12	-10.9%

(listing goes on)
SMILES	miR-21 FLuc
CCOC(=O)c1c(C)oc2nc(C)nc(N3CCN(c4cc(Cl)ccc4C)CC3)c12	5.6%
Cc1ccc(Cl)cc1-n1ncc2c(NCCCc3ccccc3)ncnc21	1.0%
Cc1nc(-n2nc(C)c(Cc3ccc4c(c3)OCO4)c2C)sc1C(=O)Nc1cccc(Cl)c1	-14.6%
CCN(c1cccc(C)c1)S(=O)(=O)c1nnc(NC(=O)c2ccccc2Cl)s1	-59.8%
CCc1nn2c(=O)cc(COC(=O)c3ccccc3NC(=O)COc3ccc(C)c(C)c3)nc2s1	-1.5%
O=C1C([N+](=O)[O-])=C(O)c2cccc3cccc1c23	6.0%
Cc1c(C(=O)N(C)c2cccc(C(F)(F)F)c2)sc2nc3n(c(=O)c12)CCCCC3	-11.1%
CC(C)c1cnc2c(c1SCC(=O)Nc1ccc(C(N)=O)cc1)c(=O)n(C)c(=O)n2C	-6.6%
Cc1ccccc1CNC(=O)CCC(=O)N1CC2CCCN2c2ccccc21 (stereo not drawn)	15.3%
Cc1ccc(Cl)cc1N1CCN(S(=O)(=O)c2cn(C)c(C)n2)CC1	-26.1%

Fetched by structure from the list above:
SMILES	miR-21 FLuc
Cc1ccc(-c2cc3ncc4c(n3n2)-c2cc(Cl)ccc2OC4)cc1	-10.8%
Cc1oc(-c2ccc(Cl)cc2)nc1CS(=O)CC(=O)NCc1ccc(Cl)cc1 (stereo not drawn)	4.9%
COc1ccc(CNc2ccc3cc(S(=O)(=O)N4CCCCC4)ccc3n2)cc1	25.0%
